Bioassay records as filed in PubChem.
HCMV NEC inh – inhibitors of HCMV UL50-UL53 nuclear egress complex interaction | 190,000 compounds, 0.15% hits | HTRF UL50-UL53 interaction, normalized percent inhibition | inhibition, % (concentration not given with the values) | AID 1918969;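 active = both replicates at 50% or more, plus weaker picks with an unusually low signal ratio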;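 also: stock transfer was 100 nL into about 20 µL; 0% = negative control wells and 100% = wells with untagged competitor protein; inactives centre near -12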
Sa growth 42C – S. aureus growth inhibition; S. aureus RN4220 growth, OD600, 20 h, 42 °C; stronger effect = lower value; relative growth, % (test concentration not listed); AID 720641; 170,000 compounds, 0.53% hits;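 active = growth at 42 °C up to 50% and 20 or more points under that at 30 °C, or under 10% at both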;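 also: 300 nL library stock went into each well; scaled to the means of positive and negative controls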
GIV-Gai inh – inhibitors of GIV GBA-motif binding to rat Galpha-i3. Galpha-i3/FITC-GIV peptide fluorescence polarization, 90 min; stronger effect = lower value; scaled: aluminum fluoride 0%, vehicle 100%. 210,000 compounds, 0.42% hits. percent of control (FP), % (concentration not given with the values). P08753;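 active = replicate mean at 85% of control or lower, very high polarization wells dropped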;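 also: wells of about 15 µL received 100 nL stock; the first replicate is given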
Target sequence (P08753 whole entry, looked up): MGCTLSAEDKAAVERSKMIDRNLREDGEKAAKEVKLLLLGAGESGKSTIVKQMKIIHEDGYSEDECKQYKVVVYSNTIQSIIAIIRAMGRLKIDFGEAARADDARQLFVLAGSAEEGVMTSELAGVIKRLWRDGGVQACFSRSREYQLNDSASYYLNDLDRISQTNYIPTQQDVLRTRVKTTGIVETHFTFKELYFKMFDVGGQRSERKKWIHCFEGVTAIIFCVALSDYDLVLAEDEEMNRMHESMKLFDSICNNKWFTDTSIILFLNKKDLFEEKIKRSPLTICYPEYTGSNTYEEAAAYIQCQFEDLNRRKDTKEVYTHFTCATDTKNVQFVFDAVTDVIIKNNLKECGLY
Sa growth 42C second temp – further read-out of Sa growth 42C, marked with its call; relative growth, %; measured here: growth at 30 °C;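 optical density after 20 h as mean of two plates; 100% = untreated growth and lower means inhibition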
An asterisk follows results filed as active; · = not tested or not shown; & = joins results of further samples.

SMILES	HCMV NEC inh	Sa growth 42C	Sa growth 42C second temp	GIV-Gai inh
CCN(Cc1ccccc1)c1ccc(C(=O)O)cc1NS(=O)(=O)c1ccc(F)cc1	14	·	·	103
Cc1ccc(C(=O)N2CCC(CC(=O)NCCc3c[nH]c4ccc(Cl)cc34)CC2)cc1	-24	·	·	102
Cc1cc(C)cc(C(=O)N(C(C)C)C(C)C)c1	-11	111	91	103
CC(C)Cn1cnc2c(c(-c3ccccc3)c(-c3ccccc3)n2Cc2ccco2)c1=N	4	48*	69*	103
COc1cccc(CNc2ncnc3c2nnn3C)c1	·	97	92	93
CCc1ccc(C(=O)c2cn(CC(=O)Nc3ccc4c(c3)OCO4)c3ccc(CC)cc3c2=O)cc1	8	104	84	110
Cc1ccc(CCNC(=O)Cn2c(-c3cccs3)cc3cc(F)ccc32)cc1	-42	98	90	100
CCC(C(=O)NCc1ccco1)n1nc(C)c2sc3ccccc3c2c1=O (configuration not stated)	-28	81	82	100
CCOc1ncnc2cc(OC)c(OC)cc12	-9	96	90	107
Cc1ccc(NC(=O)c2sc3nc(N)c(C#N)cc3c2N)cc1	-29	98	73	97
CCOC(=O)c1c(C)n(CCO)c2ccc(O)cc12	-21	95	86	100
Cc1csc(NC(=O)c2cc3c(s2)-c2c(C)cccc2OC3)n1	2	104	72	102
O=C(NCC(c1ccco1)S(=O)(=O)c1cccs1)c1ccc(Cl)cc1 (configuration not stated)	·	93	80	93
CC(C)=NNC(=O)CNc1ccccc1Cl	-18	79	95	102
Cc1nnc(N2CCN(C(=O)Nc3cccc(C(F)(F)F)c3)CC2)c2nn(-c3ccccc3)c(C)c12	·	89	84	129
Cn1c(=O)n(Cc2ccccc2)c(=O)c2c1nc1n2CCN1c1ccccc1	·	79	84	104
COC(=O)c1sccc1Oc1nccc(C(F)(F)F)n1	·	94	89	102
Cc1ccc(CNC(=O)C2CCN(c3ncnc4c3nc3n4CCCCC3)CC2)cc1	·	98	105	101
CC(=O)Oc1ccc(OC(C)=O)cc1	-6	98	98	·
O=C(Nc1ccccc1Cl)c1c(O)c2ccccc2[nH]c1=O	-21	·	·	102
Cc1c(C)n(Cc2ccccc2)c2ccc(C(=O)NCc3ccccc3F)cc12	·	97	89	100
COc1ccc2[nH]cc(CCN=C(NC(=O)c3ccccc3F)Nc3nc(C)cc(C)n3)c2c1	2	100	97	108
CCN(CC)CCCNC(=O)c1cn(C)c2ccc(S(=O)(=O)N3CCOCC3)cc2c1=O	-18	97	90	101
Cc1cc(C)cc(NC(=O)Cn2c(=O)n(-c3ccc(C)c(C)c3)c(=O)c3oc4ccccc4c32)c1	·	129	76	104
COCCn1c(O)c(C=NCCn2c(C)nc3ccccc32)c(=O)[nH]c1=S	3	89	90	·
CC(=O)NC(Cc1c[nH]c2ccccc12)C(=O)NCc1ccc(C(C)(C)C)cc1 (configuration not stated)	8	110	93	103
COc1cccc(/C=C2\SC(=N)N(c3ccc4c(c3)OCO4)C2=O)c1OC	-24	·	·	108
Cc1oc2ccc(O)c(CN3CCN(Cc4ccccc4)CC3)c2c1C(=O)Nc1cccc(Cl)c1C	-1	107	92	100
Cc1ccc(NC(=O)C(C#N)Cc2ccncc2)cc1C (configuration not stated)	25	70	93	111
NC1(CN2CCCCC2)CCCCC1	8	94	83	102

4 of the compounds above, bar-delimited.
mol | HCMV NEC inh | Sa growth 42C | Sa growth 42C second temp | GIV-Gai inh
Cc1ccc(CNC(=O)C2CCN(c3ncnc4c3nc3n4CCCCC3)CC2)cc1 | · | 98 | 105 | 101
CC(=O)Oc1ccc(OC(C)=O)cc1 | -6 | 98 | 98 | ·
O=C(Nc1ccccc1Cl)c1c(O)c2ccccc2[nH]c1=O | -21 | · | · | 102
Cc1c(C)n(Cc2ccccc2)c2ccc(C(=O)NCc3ccccc3F)cc12 | · | 97 | 89 | 100

The listing continues:
SMILES	HCMV NEC inh	Sa growth 42C	Sa growth 42C second temp	GIV-Gai inh
Cc1cccc(-c2noc(-c3ccccc3C(=O)NCc3cccnc3)n2)c1	-18	106	104	102
Cc1ccc(Cc2c(C)[nH]n(-c3nc(C)c(C(=O)N4CCCC4)s3)c2=O)cc1	-22	·	·	99
COc1ccc(Nc2cc(C)c3cc(NC(=O)c4ccccc4Cl)ccc3n2)cc1	·	84	37	101
COc1ccc2c(C)cc(=O)[nH]c2c1	-13&-10	106&83	85&87	102
Cc1c(C=Nc2ccc(Cl)cc2)c(O)n(C)c(=O)c1C#N	-35	81	86	108
Cn1c(C(=O)N2CCC(C(=O)NCc3ccccc3Cl)CC2)cc2oc3ccccc3c21	-16&-33	119	76	94&107
CCc1cccc(C)c1NC(=O)CN(C)C1=NS(=O)(=O)c2ccccc21	-7	82	93	·
Cc1cc(NC(=O)c2sccc2C)n(CCOC(=O)c2sccc2C)n1	-6	115	97	·
CCOc1ccc(CCNC(=O)CN2CCN(Cc3ccc(Cl)cc3)C2=O)cc1OCC	5	135	79	102
CC1=C(C(=O)Nc2ccc(Br)cn2)C(c2ccsc2)C2=C(CC(C)(C)CC2=O)N1 (configuration not stated)	-11	·	·	97
O=C1CC(Nc2ccccc2)C(=O)N1c1ccccc1Cl (configuration not stated)	-4	102	89	·
Cc1cccc(NC(=O)c2ccc(F)c(S(=O)(=O)N(C)C3CCCCC3)c2)c1	·	104	87	103
OC1CCN(Cc2cccc3ccccc23)CC1	-14	102	99	95
C=CCNC(=O)c1cc(-c2ccc(Cl)cc2)on1	4	113	92	102
O=C(Cn1ncn2c(cc3sccc32)c1=O)NCc1ccccc1	2	82	86	108
Cc1nc2c(Cl)cc(Cl)cc2[nH]1	-12	98	79	105
CC(C)NCC(O)Cn1c2c(c3ccccc31)CCc1c-2cnn1-c1ccccc1 (configuration not stated)	-9	103	104	99
CCSC1(SCC)N=C(N)C2(C#N)C(c3ccc(OC)cc3)C12C#N (configuration not stated)	·	78	77	106
COc1ccc(CNC(=O)C2CCCN(C(=O)c3nnc(C(=O)Nc4ccc(F)cc4)s3)C2)cc1 (configuration not stated)	-14	·	·	105
O=C1C(=Nc2ccc(F)cc2)c2ccccc2N1c1ccccc1	-5	·	·	104
Cc1cc(F)ccc1S(=O)(=O)Nc1ccc2oc3c(c2c1)C(=O)CC(C)(C)C3	5	95	112	109
CS(=O)(=O)Nc1ccccc1C(=O)NCCN1CCOCC1	5	89	101	104
O=C(NCC1CCCO1)c1ccc(/C=N/O)nc1 (configuration not stated)	·	95	82	97
CCCCNC(=O)N1CCCCC1	-17	89	103	100
COCCOC(=O)C1=C(N)OC2=C(C(=O)CC(C)(C)C2)C1c1ccc(Br)cc1 (configuration not stated)	-26	·	·	98
O=C(c1ccc(Br)cc1)N(Cc1cccs1)c1ccc(F)cc1	-3	91	77	103
Cc1nc(N2CCOCC2)c2c(C(=O)N3CCN(c4ccccc4F)CC3)c(C)oc2n1	·	92	89	100
CCOc1cc2[nH]c(=O)n(CCCCC(=O)N3CCN(c4cccc(Cl)c4)CC3)c(=O)c2cc1OCC	·	102	87	107
O=C(CSC1=Nc2ccccc2N=C(c2ccccn2)C1)Nc1ccc2c(c1)CCC2	-4	·	·	100
CC(NC(=O)c1ccc2nc(CCc3ccccc3)oc2c1)c1ccccc1 (configuration not stated)	·	98	93	101
Cn1c(=O)c2cc3c(=O)n(C)c(=O)c3cc2c1=O	-40	93	90	112
CCc1cc2c(cc3c(=O)n(CC(=O)N4CCN(c5cc(Cl)ccc5C)CC4)nc(CC)n32)s1	-38	109	94	103
O=C(NC1CCCC1)C1CCN(S(=O)(=O)c2ccc3nc(-c4ccccc4)[nH]c3c2)CC1	·	105	90	107
Cc1ccc(-n2c(CCC(=O)OCC(=O)NC3CCS(=O)(=O)C3)nc3ccccc3c2=O)cc1 (configuration not stated)	-8	79	94	·
O=C(CSc1nc2ccccc2o1)n1c2ccccc2c2ccccc21	-23	·	·	103
CN(C)c1cccc(C(=O)OCC(=O)c2ccc(F)cc2)c1	-2	79	86	·
Cc1nc2sc3c(c2c(=O)o1)CCC3	-40	·	·	112
CCN(CC)c1ccc2cc(-c3nc(-c4cccs4)no3)c(=O)oc2c1	·	93	87	-21*
Cc1c(C(=O)N2CCC(C)CC2)c(S(=O)(=O)NCc2ccccc2)c(C)n1C	·	88	90	101
CC1CCCN(c2ccc(NC(=O)C3CC3)c(C(=O)O)c2)C1 (configuration not stated)	-22	·	·	102
Cc1ccc(C2=NN(C(=O)COC(=O)[C@H](Cc3ccccc3)N3C(=O)c4ccccc4C3=O)C(c3ccco3)C2)cc1 (some centres not stated)	-10	107	90	·
c1cc(CNc2ncnc3sc4c(c23)CCCC4)ccn1	-2	·	·	107
CCc1ccccc1NC(=O)c1ccc2c(c1)N(Cc1cc(C)ccc1C)C(=O)c1ccccc1S2(=O)=O	-39	107	91	100
O=C(O)c1cc2ccc3c(c2oc1=O)CN(c1ccc(Cl)cc1)CO3	-116	84	81	102
CC(C)CCNC(=O)C1CCN(c2ccc(Cl)cc2)C1=O (configuration not stated)	-21	·	·	103
Cc1ccc(-n2c(=O)c3ccccc3n(CC(=O)NCCc3ccccc3)c2=O)cc1	3	103	85	101
CCCCn1cnc2cc(NCc3cccs3)ccc21	-8	106	52	101
COC(=O)c1cc(NC(=O)c2sc3ncn(Cc4cccc(F)c4)c(=O)c3c2C)cc(C(=O)OC)c1	·	119	88	104
Cc1c(C(=O)Nc2ccccc2)cc(-c2ccccc2)n1-c1ccccc1	0	80	99	109
Cc1ccc(S(=O)(=O)c2ccc(C)cc2)cc1	-24	100	93	109
CCCn1c(=O)[nH]c2cc(-c3noc(C4CC4)n3)ccc21	-34	·	·	104
O=C(CC1(O)C(=O)Nc2ccc(Br)cc21)c1ccncc1 (configuration not stated)	-9	·	·	103
CCC(Sc1ccc2nnc(-c3ccc(C)cc3)n2n1)C(=O)O (configuration not stated)	·	89	88	99
COc1ccc2c(=O)c(-c3cc4ccccc4o3)coc2c1	-5	99	96	103
CCOC(=O)c1oc2ccccc2c1COC(=O)CNC(=O)c1ccc2c(c1)OCO2	-13	95	91	·
CCCC(=O)N(Cc1ccccn1)c1nc2ccccc2s1	5	72	28	102
Cc1ccc(C2c3c(oc4ccccc4c3=O)C(=O)N2c2nccs2)cc1 (configuration not stated)	-9	92	93	99
CCOC(=O)N1CCC(n2ccc3nc(SC)ncc3c2=O)CC1	-8	104	91	106
COc1cc(C(F)(F)F)nc2ccc(C#CCO)cc12	-10	83	86	103
Oc1ccccc1CNc1nc2ccccc2n1CCN1CCCCC1	1	99	85	102

Entries of single compounds, looked up by structure. Screens in order: HCMV NEC inh, Sa growth 42C, Sa growth 42C second temp, GIV-Gai inh
COc1ccc2c(=O)c(-c3cc4ccccc4o3)coc2c1 reads -5, 99, 96, 103
Cc1ccc(C2c3c(oc4ccccc4c3=O)C(=O)N2c2nccs2)cc1 (configuration not stated) reads -9, 92, 93, 99
Cc1ccc(-n2c(=O)c3ccccc3n(CC(=O)NCCc3ccccc3)c2=O)cc1 reads 3, 103, 85, 101
CCOC(=O)N1CCC(n2ccc3nc(SC)ncc3c2=O)CC1 reads -8, 104, 91, 106

(more compounds)
SMILES	HCMV NEC inh	Sa growth 42C	Sa growth 42C second temp	GIV-Gai inh
CC(C)(C)C(=O)C(C#N)C(=O)Nc1ccc(Cl)cc1 (configuration not stated)	-5	110	88	111
COc1ccc(C)cc1S(=O)(=O)NCC(c1ccco1)N1CCc2ccccc2C1 (configuration not stated)	-31	86	79	100
CN(C)C(=O)C1CCCN1 (configuration not stated)	-2	105	90	·
COc1cc2c(cc1OC)C1CCCN1C(C)(C)C2 (configuration not stated)	14	101	99	106
Cc1ccc(Oc2ncccc2C(=O)NC(=O)c2ccccc2O)cc1	24	89	72	101
COc1cccc(Cc2nc3ccccc3nc2SCC(=O)N2CCCCC2C)c1 (configuration not stated)	·	77	87	98
COCCNC(=O)Cn1nc(N2CCN(c3ccccc3)CC2)ccc1=O	-27	·	·	104
CCC(=O)Nc1nnc(Cc2nc3ccccc3n2C)o1	-55	·	·	99
Cc1cc(NC2CCCCC2)n2ncc(-c3ccc(F)cc3)c2n1	8	·	·	96
CN(C)CCNC(=O)CN1C(=O)CCn2nc(-c3cn(C)c4ccccc34)cc21	·	89	88	102
Cc1nnsc1C(=O)N(C)c1ccccc1	4	97	79	101
O=C(CN1CCOCC1)Nc1nnc(CCS(=O)(=O)c2ccc(Br)cc2)s1	-20	·	·	100
COc1ccc(-c2cnn3c(N)c(-c4ccccc4)cnc23)cc1OC	2	·	·	107
Cc1cc2c(cc1C)N(CC(=O)Nc1ccc(Br)c(C)c1)C(=O)C1CCCC1=N2 (configuration not stated)	-22	·	·	101
CCCn1cc(S(=O)(=O)c2ccc(CC)cc2)c(=O)c2cc(F)c(N(CC)CC)cc21	·	119	88	105
CCN(CC)Cc1c(O)ccc2cc(-c3ccc(OC)c(OC)c3)c(=O)oc12	-93	114	77	146
Cc1cc(C)cc(-n2c(SCC(=O)Nc3ccc4c(c3)OCO4)nc3c([nH]c4ccccc43)c2=O)c1	·	102	85	101
Cc1ccn2c(Nc3ccccc3C)c(-c3ccccc3)nc2c1	-7	107	98	98
COC(=O)COc1ccc(/C=C2\C(=O)NC(=S)N(c3ccccc3)C2=O)cc1OC	-22	·	·	107
